NS1 inh – blocks influenza NS1 protein function | S. cerevisiae slowed by influenza A NS1, growth recovery by OD600 | Potency, µM (doses to about 46.1 µM), inactives show top-dose activity, positive = more growth | 270,000 compounds, 0.4% hits | AID 2326; active means well fitted rising curve with a large enough effect; inconclusive means small, poorly fitted or top-dose-only effect; inactive means no such curve, though single readings can be large or run the other way; further: nearly all actives have a fitted effect of over 50% in size
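In this qHTS, NS1 from influenza A is expressed in budding yeast, where it slows growth. Cells are switched from glucose to 2% galactose medium (pH 6.0, -URA), treated with compound, and growth recovery is read at OD600.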
Cruzain inh noDet – cruzain (T. cruzi) inhibition without detergent; AID 1476; P25779; purified cruzain, Z-FR-AMC fluorescence, no detergent; 200,000 compounds, 2.3% hits; Potency, µM, without a hit: max response, negative = inhibition, actives largely listed as inhibitors;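 further: plate controls were enzyme without inhibitor for no effect and buffer without enzyme for full effect; nearly all actives have a fitted effect of over 40% in size; top concentration of the series not given in the record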
Target sequence (P25779 123-467 limits assumed): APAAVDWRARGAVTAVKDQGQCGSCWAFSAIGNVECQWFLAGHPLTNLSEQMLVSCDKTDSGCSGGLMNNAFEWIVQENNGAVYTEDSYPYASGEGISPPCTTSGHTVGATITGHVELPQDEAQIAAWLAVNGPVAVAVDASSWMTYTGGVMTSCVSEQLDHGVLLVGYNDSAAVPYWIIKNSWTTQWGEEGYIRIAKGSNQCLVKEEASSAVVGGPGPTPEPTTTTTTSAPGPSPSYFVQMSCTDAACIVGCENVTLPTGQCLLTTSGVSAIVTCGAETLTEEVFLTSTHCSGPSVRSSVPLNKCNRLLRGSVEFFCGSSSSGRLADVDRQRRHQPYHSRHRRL
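Detergent-free condition (0.00005% Triton X-100) in acetate buffer pH 5.5 with DTT. 1.5 nM enzyme and compound were pre-mixed 15 min, then 2 uM Z-FR-AMC substrate added; reaction progress from fluorescence change between first and third reads (60 s).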
RE007 growth inh – less growth of the S. pombe RE007 Vpr strain; S. pombe RE007 Vpr strain, BacTiter-Glo ATP luminescence, 24 h; control for the full effect not named in the record; Potency, µM (titrated, usually from 92.2 µM), inactives show top-dose activity change, negative = less growth; 360,000 compounds, 0.21% hits; AID 651644; active = well fitted falling curve with a large enough effect; inconclusive = small, poorly fitted or top-dose-only effect; inactive = no such curve, though single readings can be large or run the other way;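 further: on the % scale 0 is the no-effect control and ±100 the full control effect; nearly all actives have a fitted effect of over 50% in size; the assay follows cell death caused by Vpr and the record does not say whether a fall means rescue or toxicity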
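Fission yeast RE007 carrying one integrated HIV-1 vpr copy, seeded at OD 0.01 in PMG+AL medium with 23 nL pinned compound. Grown 24 h at 30 degrees; viability read by BacTiter-Glo luminescence after 5 min.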
SARS PLpro yeast – SARS-CoV PLP inhibition in yeast; Potency, µM (doses to about 32.9 µM), inactives show at the top dose activity, positive = growth rescue; S. cerevisiae expressing SARS-CoV PLpro, growth rescue; control for the full effect not named in the record; 330,000 compounds, 0.19% hits; AID 485353; active means well fitted rising curve with a large enough effect; inconclusive means small, poorly fitted or top-dose-only effect; inactive means no such curve, though single readings can be large or run the other way; further: 0% is about no effect; nearly all actives have a fitted effect of over 55% in size; growth read by luminescence after 48 h
Cruzain inh Det – blocks cruzain activity in presence of Triton detergent; P25779; purified cruzain, Z-FR-AMC fluorescence, 0.01% Triton; Potency, µM, for the others: max response, negative = inhibition, hits mostly inhibitors; 200,000 compounds, 0.43% hits; AID 1478;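 further: plate controls were neutral wells for no effect and buffer without enzyme for full effect; nearly all actives have a fitted effect of over 40% in size; top concentration of the series not given in the record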
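Cruzain (1.5 nM) preincubated 15 min at RT with compound in 100 mM sodium acetate pH 5.5, 5 mM DTT, 0.01% Triton X-100. Reaction started with 2 uM Z-FR-AMC; AMC fluorescence (ex 360/em 450 nm) change over 60 s gave rate.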
StopGo reporter – FMDV 2A StopGo reporter, luciferase signal. human cells with a luciferase reporter of 2A StopGo recoding; control for the full effect not named in the record. Potency, µM (highest dose often 57.9 µM), inactives show at the highest dose signal change, negative = less light. 410,000 compounds, 1.2% hits. AID 1159524; active = well fitted falling curve with a large enough effect; inconclusive = small, poorly fitted or top-dose-only effect; inactive = no such curve, though single readings can be large or run the other way; tested in HEK293T cells; further: on the % scale 0 is the no-effect control and ±100 the full control effect; nearly all actives have a fitted effect of over 45% in size; luciferase light after 4 h
Lassa entry inh – Lassa virus entry inhibition | Potency, µM (highest dose often 37.9 µM), without a hit: top-dose activity change, negative = inhibition, most hits filed as inhibitors | AID 540256 | Lassa virus pseudotype entry inhibition, cell reporter; control for the full effect not named in the record | 300,000 compounds, 1.2% hits; active means well fitted inhibition curve with a large enough effect; inconclusive means small, poorly fitted or top-dose-only effect, or effect the other way; inactive means flat fitted curve, though single readings scatter; tested in HEK293 cells; further: on the % scale 0 is the no-effect control and ±100 the full control effect; nearly all actives have a fitted effect of over 50% in size; luciferase read-out
MARV entry inh – Marburg virus entry inhibition; Marburg virus pseudotyped entry inhibition, cell reporter; control for the full effect not named in the record; about a third of the inactives were read at about 46 µM; Potency, µM (top dose mostly 37.8 µM), without a hit: top-dose activity change, negative = inhibition, usual class: inhibitors; 300,000 compounds, 1.8% hits; active = well fitted inhibition curve with a large enough effect; inconclusive = small, poorly fitted or top-dose-only effect, or effect the other way; inactive = flat fitted curve, though single readings scatter; tested in HEK293 cells; about a fifth of its hits are not listed in these tables; further: on the % scale 0 is the no-effect control and ±100 the full control effect; luciferase read-out
* = called active by the depositor; ? = inconclusive; · = not tested or not shown; & = joins results of further samples; [ ] = dose if it differs, or a comment. Unless noted, the call rests on the fitted dose curve; in most records, active means well fitted curve in the direction sought with a large enough effect; inconclusive means small, poorly fitted or top-dose-only effect, or another doubt; inactive means no such curve, though single readings can be large; an effect the other way counts as inactive or inconclusive. Potency means the concentration at half of the fitted maximal effect.

SMILES | NS1 inh | Cruzain inh noDet | RE007 growth inh | SARS PLpro yeast | Cruzain inh Det | StopGo reporter | Lassa entry inh | MARV entry inh
CC(NS(=O)(=O)c1ccc(Br)cc1)C(c1cccs1)N1CCN(C)CC1 (stereo unspecified) | -7% | -5% | -24% | 5% | -1.4% | 0% | · | ·
CCc1ccc(NC(=O)N2CCN(C(=O)C3CCCO3)CC2)cc1 (stereo unspecified) | -9% | · | 9% | 2% | · | 6% | -2% | 1%
COc1ccccc1CCNC(=O)c1nccnc1C(=O)O | 5% | · | -8% | -1% | · | 6% | -1% | 16%
c1cncc(C(c2nnnn2C2CCCC2)N2CCN(Cc3ccc4c(c3)OCO4)CC2)c1 (stereo unspecified) | -7% | -3% | -8% | 2% | 0.6% | · | -25% | 1%&1%
Cn1c(=O)c2c(nc(NCc3ccco3)n2Cc2ccccc2Cl)n(C)c1=O | -3% | -2% | 3% | 3% | -4.5% | ? | 3% | -13%&-13%&-13%
Cc1ccc2nc(SCCCCOc3ccccc3)[nH]c2c1 | -44% | -5% | 56µM* | -36% | 0.6% | -28% | -14% | -5%
Cc1sc2ncnc(NCC(c3ccccc3)N(C)C)c2c1C (stereo unspecified) | -6% | · | -21% | 0% | · | ? | -19%[46.1 µM] | ?
O=C(Cn1c(CO)nc2ccccc21)Nc1cc(C(F)(F)F)ccc1N1CCOCC1 | -4% | ? | 0% | 0% | 4.1% | -21% | 4% | -22%
Cc1cc(NC(=O)CCC(=O)N(c2ccccc2)C(C(=O)NC2CCCC2)c2ccc(F)cc2)no1 (stereo unspecified) | -4% | · | 6% | -4% | · | -2% | -9% | -2%[46.1 µM]
Cc1ccc(CCNC(=O)c2cc3c(s2)-c2c(C)cccc2OC3)cc1 | · | -21% | · | · | -2.2% | -12% | · | 8%[46.1 µM]
N#Cc1cc(C#N)c(N2CCN(c3ccccn3)CC2)nc1N | -6% | 6% | 12% | -1% | -3.3% | 3% | -3% | ?
C=Cn1cc[n+](CC(=O)c2ccc(Br)s2)c1 | 11% | · | -4% | 19% | · | -8% | · | ·
CCOC(=O)N1CCN(C(=O)Nc2ccc(Cl)cc2Cl)CC1 | -18% | 4% | 2% | -1% | 4.8% | 22% | 6% | 28%[46.1 µM]
CC(=O)NC1C(=O)N=C(SC(C)C(=O)Nc2cccc(Cl)c2)NC1=O (stereo unspecified) | 7% | · | 2% | 0% | · | 1% | 4%[46.1 µM] | 7%[46.1 µM]
c1ccc2oc(-c3csc(N4CCOCC4)n3)cc2c1 | · | · | -12% | 1% | · | -59% | ? | 7.9µM*
CN1CCN(S(=O)(=O)c2cccc(C(=O)NC3CCCC3)c2)CC1 | · | · | 0% | -1% | · | -16% | 8% | ?
CCCCCCN(CCCCCC)C(=O)Cc1c(-c2ccc(F)cc2)[nH]c2ccccc12 | -10% | 32µM* | 3%[18.4 µM] | · | -9.0%&1.7% | -19%&-6%&-18% | 9.2µM* | 9.2µM*
O=C(CN(Cc1ccc(F)cc1)C(=O)C1CSC(=O)C1)NC1CCCCC1 (stereo unspecified) | 6% | 10% | 1% | -2% | 2.8% | -6% | -6% | -18%
CCOc1cc(/C=C2\SC(N3CCCC(C)C3)=NC2=O)ccc1O (stereo unspecified) | -5% | · | 21% | -1% | · | 27% | ? | 12%[46.1 µM]
O=C(COC(=O)c1ccc2ncsc2c1)Nc1ccc(OC(F)(F)F)cc1 | · | · | -6% | 3% | · | -12% | 1% | 6%[46.1 µM]
COc1ccc(S(=O)(=O)NCCC(C)C)cc1C | -4% | 9% | 7% | 5% | 1.9% | 0% | -1% | 2%
O=C(COC(=O)c1ccccc1C(=O)c1ccccc1)c1ccco1 | 1% | 4% | -7% | -2% | -2.4% | 10% | 0% | 14%
Cc1cc2oc(C(=O)N(Cc3ccc(N(C)C)cc3)CC3CCCO3)c(C)c2cc1C (stereo unspecified) | -29% | ? | 20% | -51% | -7.2% | -1%&3% | ? | ?
CC(=O)c1cccc(-n2nnnc2SCC(=O)Nc2cc(C)on2)c1 | 1% | · | -6% | -2% | · | -11% | ? | -9%[46.1 µM]
CC(C)(C)c1ccc(OC(=O)N2CCOCC2)cc1 | 1% | · | 17% | ? | · | 30% | · | ·
CC(CC(=O)NCc1ccco1)S(=O)(=O)c1ccc2c(c1)CCN2C(=O)C1CC1 (stereo unspecified) | -6% | · | -7% | 4% | · | 10% | · | ·
Cc1cccc(-c2noc(-c3ccc(NC4CCCC4)c([N+](=O)[O-])c3)n2)c1 | · | 0% | · | · | -6.9% | 4% | 6%[46.1 µM] | 13%[46.1 µM]
CCOC(=O)c1ccc(NC(=O)[C@@H](NC(N)=O)C(C)C)cc1 | -4% | · | 5% | 0% | · | 6% | -17%[46.1 µM] | ?
N#C/C(=C\c1ccc(Sc2nc3ccccc3[nH]2)o1)c1ccccc1 | -56% | ? | -7% | -11% | -6.0% | ? | ? | ?
Cc1onc(-c2ccccc2)c1C(=O)OCCOc1ccc([N+](=O)[O-])cc1[N+](=O)[O-] | 2% | · | 4% | -2% | · | ? | ? | ?
Cc1ccc2nc(-c3ccncc3)cc(C(=O)Nc3ccncc3)c2c1 | 8% | · | -7% | -2% | · | -29% | · | ·
COC(=O)N[C@@H](c1ccc(Br)cc1)C(C(=O)OC)C(=O)OC | · | -7% | · | · | 2.7% | · | 9%[14.3 µM] | ?
Cc1cccc(C(=O)NCc2nnc3c4ccccc4c(-c4ccccc4)nn23)c1 | 24% | ? | 6% | ? | -7.3% | -25% | -13% | ?
CN1c2ccsc2/C(=N/NC(=O)c2c(F)cccc2F)CS1(=O)=O | 7% | -1% | 4% | 21% | -3.5% | -10% | 6% | 4%
Cc1scc(C(=O)NNC(=S)NCC(C)C)c1C | -3% | 4% | -3% | -7% | 2.4% | 56%[activator] | 14% | ?
COc1ccc(CNC(=O)c2cnc(N3CCOCC3)c3ccccc23)cc1 | · | 9% | · | · | -2.9% | -13% | 4%[46.1 µM] | ·
CCOC(=O)Cc1c[nH]c(=S)[nH]c1=O | 9% | · | -1% | 0% | · | -21% | 3% | 11%[46.1 µM]
Cc1ccc(S(=O)(=O)c2cnc(-c3ccccc3)nc2N2CCCCC2)cc1 | 13% | · | -1% | 0% | · | 8% | ? | ?
C=CCn1c(SCC(=O)Nc2sc3c(c2C#N)CCC3)nnc1C1COc2ccccc2O1 (stereo unspecified) | ? | 32µM* | 14% | 7% | -2.0% | 0% | 11% | -11%
CCOc1ccccc1N(C(=O)CNC(=O)c1ccco1)C(C(=O)NC1CCCC1)c1ccncc1 (stereo unspecified) | 0% | · | 7% | -7% | · | 0% | 24% | -25%[46.1 µM]
O=C(Nc1ccccc1C(=O)OCc1cc(=O)n2c3c(sc2n1)CCCC3)c1ccc(Cl)cc1 | · | 0% | · | · | 0.9% | -12% | ? | ·
CCOC(=O)C(C)Sc1snnc1C (stereo unspecified) | · | · | 16% | · | · | 13% | -1% | ?
CCOc1cc(/C=C/C(=O)O)ccc1OCc1ccccc1 | · | · | -8% | 2% | · | 22% | 4% | 6%
CCN(CC)C(=O)Cn1c(=O)n(CCc2ccccc2)c(=O)c2ccccc21 | · | -2% | · | · | -1.8% | -26% | -26%[46.1 µM] | 15%[46.1 µM]
COc1ccc(-c2[nH]ncc2C(=O)NCc2cccc(OC)c2)cc1 | · | -6% | · | · | 1.0% | -19% | · | ?
CCOC(=O)c1c(C)[nH]c(CCC(=O)Nc2ccc(OC)c(OC)c2)c1C | · | 14% | · | · | 2.4% | -6% | 10%[46.1 µM] | ·
CCOc1ccc(N(CC(=O)NCc2ccc(OC)cc2)C(=O)CCC(=O)Nc2nccs2)cc1 | 0% | · | 2% | 1% | · | 16% | ? | 0%[46.1 µM]
CC(=O)N(c1ccccc1C)c1ccccc1C | · | · | 10% | · | · | 20% | ? | ?
O=C(Cn1ncc2c1-c1ccccc1OC2)N1CCN(c2ccccn2)CC1 | -5% | 3% | -1% | -1% | 2.3% | ? | 1% | 1%
CCCOc1cccc(C(=O)Nc2ccc(Br)cc2F)c1 | 24% | -3% | 0% | 4% | -5.6% | 18% | -2% | ?
